# Assay outcomes from PubChem BioAssay.
# AmpC nodet inh: Promiscuous and Specific Inhibitors of AmpC Beta-Lactamase (assay without detergent); P00811; AmpC nitrocefin hydrolysis, absorbance 480 nm, no detergent; potencies from a single point are estimates; Potency, µM (series often up to 28.7 µM), for the others: at the top dose activity change, negative = inhibition; hit rate 1.8% among 71,000; AID 585, 2007; active = falling curve, for most hits resting on a single point; inconclusive = weak or doubtful change; inactive = flat or rising curve; also: % of control where 0% means no effect; about half of the hits show no inhibition at the top dose; a quarter of the inactives give rising signals
# Target sequence (P00811 whole entry, looked up): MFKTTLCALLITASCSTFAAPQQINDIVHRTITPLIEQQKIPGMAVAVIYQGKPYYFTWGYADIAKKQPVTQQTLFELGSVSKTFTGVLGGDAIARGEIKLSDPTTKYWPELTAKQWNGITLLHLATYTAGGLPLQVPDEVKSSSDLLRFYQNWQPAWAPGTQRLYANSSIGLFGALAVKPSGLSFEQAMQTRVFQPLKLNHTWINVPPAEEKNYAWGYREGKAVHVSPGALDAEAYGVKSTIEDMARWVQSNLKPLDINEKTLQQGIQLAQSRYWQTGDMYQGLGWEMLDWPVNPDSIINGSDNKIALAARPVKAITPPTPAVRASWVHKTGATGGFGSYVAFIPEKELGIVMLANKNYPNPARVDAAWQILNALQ
#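 AmpC, 20 mM phosphate pH 7.0; 15 min cpd preinc, RT; start with nitrocefin (800 uM stock); A480 kinetic read, 20 s intervals, 4 min. No-enzyme wells = negative control.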
# Active calls of the source: *; ? = inconclusive; [ ] = remark or other dose. Potency is read from the fitted curve at half-maximal effect. This is a subset. The share of hits here may be higher or lower than overall.
SMILES,AmpC nodet inh
COC(=O)c1ccccc1NC(=O)Cn1cnc2ccc(S(=O)(=O)N3CCC(C)CC3)cc2c1=O,63.0%
COc1ccc(N/C(C)=C2/C(=O)C(=O)N(CCO)C2c2ccc(Br)cc2)cc1 (stereo unspecified),86.6%
Cc1cc(C)cc(CSc2nnc(C)c(=O)[nH]2)c1,-17.6%
COCCNC(=O)C1CC(=O)N(C2CCCC2)C1 (stereo unspecified),-20.6%
COC(=O)CSc1nnc([C@H](CC(C)C)NC(=O)OC(C)(C)C)o1,20.8%
COc1ccc(CCn2c(C)cc(C(=O)CSc3nnnn3-c3ccccc3)c2C)cc1OC,48.0%
COc1ccc(-c2nnc(SCCOc3cccc(C)c3)n2N)cc1,-4.3%
Cc1noc(C)c1COC(=O)c1ccc(-c2nc3ccccc3s2)s1,34.0%
COc1ccccc1NC(=O)CSc1nc2nc(C)cc(C)c2c(=O)[nH]1,-4.1%
CCCCN(C)CCCNC(=O)c1ccc(N2CCCC2=O)cc1,4.5%
Cc1cc(OCC(O)CN2CCN(CCO)CC2)ccc1C(C)C (stereo unspecified),20.8%
CCCCn1c(SCC(=O)c2cc(OC)ccc2OC)nc2cc(S(N)(=O)=O)ccc21,-11.5%
COc1ccc(NC(=O)c2ccc3c(c2)C(=O)N(Cc2cccnc2)C3=O)c(OC)c1,17.1%
CCOc1ccc(-c2nnc(-c3snc(-c4ccc(F)cc4)c3N=CN(C)C)o2)cc1,45.2%
Cc1nc2ncnn2c(C)c1CCC(=O)N1CCC2(CC1)OCCO2,-2.2%

# Exported tab-delimited: part of the list above.
structure	AmpC nodet inh
COc1ccc(N/C(C)=C2/C(=O)C(=O)N(CCO)C2c2ccc(Br)cc2)cc1 (stereo unspecified)	86.6%
Cc1cc(C)cc(CSc2nnc(C)c(=O)[nH]2)c1	-17.6%
COCCNC(=O)C1CC(=O)N(C2CCCC2)C1 (stereo unspecified)	-20.6%

# (next part)
SMILES,AmpC nodet inh
COc1cc(-c2nnc3sc(C4CCCCC4)nn23)cc(OC)c1OC,116.3%
O=C(O)c1ccc(S(=O)(=O)NC2CCCCC2)cc1,4.3%
COC(=O)[C@@]1(Cc2ccc(F)cc2)[C@H]2c3cc(C(=O)N(C)C)n(Cc4cccc5ccccc45)c3C[C@H]2CN1C(=O)c1ccccc1,102.6%
c1cc(C(c2nnnn2C2CCCCC2)N2CCN3CCCC3C2)ccn1 (stereo unspecified),16.1%
CNCc1cc2ccc(C)cc2[nH]c1=O,-12.7%
Cc1nnc(Nc2ccc3c(c2)OCO3)c2ccccc12,-15.0%
CN(C)CCCNCCCN,-14.1%
COC(=O)c1ccccc1NC(=O)CN1C(=O)CSC1=O,-8.1%
CCN(CC)CCCNC(=O)c1c(O)c2c([nH]c1=O)CCCC2,10.8%
CCc1ccc2c(CN3CCc4ccccc43)cc(=O)oc2c1,-7.8%
c1ccc(-c2cn3c4c(sc3n2)CCCC4)cc1,31.6%
CC1(C)CC(=O)C=C(NCC(=O)O)C1,-3.1%
CCCCN(C)C(=O)c1coc(=O)c2ccccc12,-7.1%
C=CCn1c(SCCCCCC)nc(O)cc1=O,-5.2%
O=C(O)c1cc(O)c(O)c(O)c1,-17.2%
O=c1oc2cc(O)ccc2cc1-c1ccc(F)cc1,118.9%
O=C(Nc1ccc(N2CCOCC2)c(Cl)c1)c1c(F)c(F)c(F)c(F)c1F,-5.0%
COc1ccc2[nH]cc(CCNc3ncncc3-c3cccc(NS(C)(=O)=O)c3)c2c1,-14.5%
COc1ccc(NC(=O)CSc2nc3ccccc3c(=O)n2CCNC(C)=O)cc1,75.6%
NC(=O)CCc1c[nH]c2ccccc12,-2.6%
COc1ccc2[nH]c(C)c(CCN3CCC(=O)C(C)C3C)c2c1 (stereo unspecified),35.1%
Cc1ccc(-c2cc(C(F)F)n3ncc(C(=O)NCc4ccco4)c3n2)cc1,2.8%
COc1ccc(CCN2C(=O)CC(N3CCN(S(=O)(=O)c4ccccc4)CC3)C2=O)cc1 (stereo unspecified),100.4%
CC(C)CNC(=O)C1CC(=O)OC12CCCCC2 (stereo unspecified),0.2%
COC(=O)c1cc(NS(=O)(=O)c2ccc(OC)c(OC)c2)ccc1Cl,10.7%
CC(C)n1c(NCc2ccc(N(C)C)cc2)nc2ccccc21,24.1%
COc1cc2c(cc1OC)C(c1ccncc1)CC(=O)N2 (stereo unspecified),-5.8%
O=S1(=O)CCN2C=C(Br)C=C(Br)C2=N1,-0.8%
CCC(C)C(NCc1cccc(C)c1)C(=O)O (stereo unspecified),-20.3%
Cn1cccc1Cc1nnc(SCC(=O)N2CCCc3ccccc32)n1-c1ccc(F)cc1,138.2%

# In another format: three of the compounds above
mol | AmpC nodet inh
CC(C)CNC(=O)C1CC(=O)OC12CCCCC2 (stereo unspecified) | 0.2%
COC(=O)c1cc(NS(=O)(=O)c2ccc(OC)c(OC)c2)ccc1Cl | 10.7%
CC(C)n1c(NCc2ccc(N(C)C)cc2)nc2ccccc21 | 24.1%

# Next entries
SMILES,AmpC nodet inh
CC(C)CN(CC(C)C)S(=O)(=O)N1CCC(C(=O)NCc2cccs2)CC1,16.9%
CC(C)OC(=O)CN1CCN(C2c3ccccc3-c3ccccc32)CC1,132.1%
Cc1onc(-c2ccccc2)c1C(=O)Nc1nc(-c2cc(F)ccc2F)cs1,-9.1%
Cn1nc(-c2ccc(OCC(=O)N3CCN(Cc4ccccc4)CC3)cc2)c2ccccc2c1=O,142.0%
Cc1onc(-c2ccccc2Cl)c1C(=O)Nc1ccc(-n2nncc2C(C)(C)C)cc1,44.7%
c1cncc(-c2nc(NCCN3CCOCC3)c3ccccc3n2)c1,26.8%
COC(=O)c1ccc(Cl)c(NC(=O)NC2CCCCC2)c1,3.0%
O=C(Nc1ccc(-c2noc(CCc3ccccc3)n2)cc1)c1ccco1,-13.2%
COc1cc(C2c3c(-c4cc(Cl)c(C)cc4O)n[nH]c3C(=O)N2Cc2cccnc2)ccc1O (stereo unspecified),74.9%
O=C(COc1ccc2c3c(c(=O)oc2c1)CCC3)c1ccc2c(c1)OCO2,-5.3%
O=S(=O)(NCc1ccccc1)c1ccc(S(=O)(=O)N2CCCCC2)cc1,?
CCOC(=O)C1CCN(C(=O)c2ccccc2N(C)S(C)(=O)=O)CC1,-8.4%
C#CCOC(=O)c1ccccc1C(=O)OCC#C,-0.5%
C/C=C(\C)c1nnc(NC(=O)C(C)C)s1,-5.9%
O=C(O)CCC(=O)N1CCc2cc(S(=O)(=O)N3CCN(c4ccc(F)cc4)CC3)ccc21,22.2%
COc1ccc(NS(=O)(=O)c2cc(C)ccc2NC(=O)c2cc(C)oc2C)cc1,-24.8%
Cc1ccc(N(CC(=O)Nc2ccc(F)cc2)S(=O)(=O)N2CCCC2)cc1,32.8%
COc1ccc(CCNC(=O)CN2CCOc3ccccc32)cc1OC,55.9%
S=C([S-])NCCNC(=S)[S-].[Zn+2],-13.8%
Cn1c(=O)[nH]c(=O)c2c1nc(Br)n2CCC(=O)c1ccccc1,8.6%
COc1cc2ccccc2cc1C(=O)N1CCN(C)CC1,-4.3%
CC(C)(C)c1ccc(OCC(=O)O)c(Cl)c1,1.3%[5.75 µM]
COC(=O)c1ccccc1NC(=O)Cn1ccnc1,0.9%
CCOC(=O)N1CCN(C(=O)c2ccc3nc4ccsc4c(=O)n3c2)CC1,38.0%
O=C1CC(c2cccs2)c2cc3c(cc2N1)OCO3 (stereo unspecified),-13.1%
Cc1ccc2nc(CC(=O)c3ccc4ccccc4c3)c(=O)[nH]c2c1,2.9%[5.75 µM]
CCS(=O)(=O)Nc1cccc(C(=O)CC2(O)C(=O)Nc3ccccc32)c1 (stereo unspecified),-10.6%
CCOc1ccc2nc(N3CCCC(C(=O)N4CCN(CC)CC4)C3)sc2c1 (stereo unspecified),114.8%
CCOc1ccc(N2C(=O)c3cccnc3C2Nc2ccc(Cl)cc2)cc1 (stereo unspecified),79.2%
CCC[C@@H]1C[C@@]1(CCC)[C@@H](NP(=O)(c1ccccc1)c1ccccc1)c1ccc(C(=O)OC)cc1,35.0%

# Individual results from the entries so far:
# Reading of Cn1c(=O)[nH]c(=O)c2c1nc(Br)n2CCC(=O)c1ccccc1 under AmpC nodet inh: 8.6%
# Reading of S=C([S-])NCCNC(=S)[S-].[Zn+2] under AmpC nodet inh: -13.8%
# Reading of CCOc1ccc2nc(N3CCCC(C(=O)N4CCN(CC)CC4)C3)sc2c1 (stereo unspecified) under AmpC nodet inh: 114.8%
# Reading of Cc1ccc(N(CC(=O)Nc2ccc(F)cc2)S(=O)(=O)N2CCCC2)cc1 under AmpC nodet inh: 32.8%
# Reading of COc1cc2ccccc2cc1C(=O)N1CCN(C)CC1 under AmpC nodet inh: -4.3%
# Reading of O=C1CC(c2cccs2)c2cc3c(cc2N1)OCO3 (stereo unspecified) under AmpC nodet inh: -13.1%
# Reading of COc1ccc(CCNC(=O)CN2CCOc3ccccc32)cc1OC under AmpC nodet inh: 55.9%

# (listing goes on)
SMILES,AmpC nodet inh
O=C(CN1C(=O)CSC1=O)Nc1ccc(F)c(F)c1F,4.8%
O=C1N(CN2CCOCC2)c2ccccc2C1(O)c1c[nH]c2ccccc12 (stereo unspecified),-0.9%
Cc1ccc2c(c1)C(O)(c1c(C)[nH]c3ccccc13)C(=O)N2 (stereo unspecified),-6.8%
COCCOC(=O)C1=C(C)OC(N)=C(C#N)C1c1ccc2c(c1)OCO2 (stereo unspecified),2.7%
COc1cc(S(=O)(=O)N2CCC(C(N)=O)CC2)c(C)cc1C,18.8%
COc1ccc(S(=O)(=O)N2CCN(C(=O)NC3CCCCC3)CC2)cc1OC,21.3%
Cc1ccc2c(c1)C1CN(C)CCC1N2C(=O)Cn1nnc(-c2ccccc2F)n1 (stereo unspecified),39.5%
O=C(Nc1ccc(Cl)cc1C(=O)O)c1ccc2c(c1)C(=O)N(Cc1ccco1)C2=O,0.0%
O=C(c1cccs1)N1CCN(S(=O)(=O)N2CCCCC2)CC1,2.8%
CCCN1C(=O)C2C(C(=O)Nc3cccc(OC)c3)C3C=CC2(O3)C1C(=O)NC1CCCCC1 (stereo unspecified),13.7%
CC1(C)O[C@H]2C[C@@H]3[C@H]4CCC5=CC(=O)CC[C@@]5(C)[C@]4(F)[C@@H](O)C[C@@]3(C)[C@@]2(C(=O)CCl)O1,53.9%[12.8 µM]
COc1nc(NC(C)(C)C)nc(Oc2ccc(=O)n(C)n2)n1,17.2%
CN(CCO)Cc1ncccc1O,-0.3%[5.75 µM]
O=S(=O)(NCCSc1ccc(Cl)cc1)c1ccc2c(c1)OCCO2,-16.0%
C[C@@H]1CCC[C@H](C)N1,-1.1%[12.8 µM]
Cc1ccc(NC(=O)CSc2nnc(-c3ccc(S(=O)(=O)N4CCCC4)cc3)o2)cc1C,-15.4%
CCOCCCNC(=O)c1cc(C)nn1-c1ccccc1,-2.0%
CC1CC(C)CN(c2oc(-c3ccco3)nc2C#N)C1 (stereo unspecified),32.7%
O=C(CSc1nnnn1C1CCCCC1)N1CCc2ccccc21,-5.4%
O=C1C(C=NCc2ccco2)=C(O)c2ccccc21,-15.7%
COc1c(C(=O)Nc2c(C)n(C)n(-c3ccccc3)c2=O)ccc2ccccc12,16.0%
Cc1cc(C)nc(N2C(=O)CC(Cc3ccccc3)C2=O)n1 (stereo unspecified),18.0%
CCCOc1ccc(/C(O)=C2/C(=O)C(=O)N(CCCOC)C2c2ccncc2)cc1 (stereo unspecified),-6.7%
CN(C)CCn1nnnc1SCC1=C(C(=O)O)N2C(=O)[C@@H](NC(=O)Cc3csc(N)n3)[C@@H]2SC1,-0.2%[12.8 µM]
N#Cc1ccc(CN2CC3(CCN(C(=O)c4cc(C(F)(F)F)cc(C(F)(F)F)c4)CC3)C2)cc1,141.3%
COc1ccc(C(=O)Nc2nncs2)cc1S(=O)(=O)N1CC(c2ccccc2)CC1=O (stereo unspecified),?
Oc1c(C(Nc2nc3ccccc3s2)c2ccco2)ccc2cccnc12 (stereo unspecified),-24.6%
CC(=O)Nc1c(C(=O)O)[nH]c2ccccc12,-6.4%
COc1ccc2c(c1OC)C(=O)N(c1cccc(C)c1)C2=O,21.4%
CC(=O)Oc1cccc(N2C(=O)C3C(C2=O)C2C=CC3C23CC3)c1 (stereo unspecified),2.5%
O=C(NCCN1CCOCC1)c1ccc2c(c1)N(Cc1ccccc1F)C(=O)CS2,52.7%
Cc1cc(C)c2nc(SCC(=O)N3CCCCC3)c(C#N)cc2c1,4.1%
CCOC(=O)c1ccc(NC(=O)CSc2nnc(COc3ccccc3OC)n2CC)cc1,17.1%
O=C(Nc1nnc(-c2ccco2)s1)C1CCN(S(=O)(=O)c2ccc(Cl)cc2)CC1,-4.0%
COc1ccccc1C1(O)CCN(CC(=O)Nc2c(C)nn(C)c2C)CC1,2.2%
CC1=C(C(=O)Nc2ccccc2C)C(c2ccc(C)o2)N2C(=O)CSC2=N1 (stereo unspecified),-2.0%
Cn1cccc1C1NC(=O)c2c(sc3c2CCC(C(C)(C)C)C3)N1 (stereo unspecified),9.7%
COC(=O)C1CCN(C(=O)NC(C)(C)C)CC1,1.8%
O=C(NCC1c2ccccc2CCN1C(=O)CN1CCOCC1)C1CCCCC1 (stereo unspecified),10.5%
N#CC(C(=O)NCCc1ccccc1)c1nc2ccccc2nc1N1CCCCC1 (stereo unspecified),-4.2%
COc1ccc(O)c(CN2CCN(C/C=C/c3ccccc3)CC2)c1,44.7%
O=C(NCc1ccc(F)cc1)c1cc2n(n1)C(C(F)(F)F)CC(C1CC1)N2 (stereo unspecified),3.98µM*[single pt active]
CC(C)CC(c1nnnn1Cc1ccco1)N1CCN(C2CCCC2)CC1 (stereo unspecified),9.2%
CCC(C)(C)n1nnnc1C(c1cccs1)N1CCN(c2nc3ccccc3s2)CC1 (stereo unspecified),67.5%
CC(=O)Oc1ccc(N2C(=O)CCC2=O)cc1,-7.4%
